miR-21 reporter: raises the signal of a miR-21 reporter; Potency, µM (highest dose often 38.3 µM), for inactives: top-dose reporter change, positive = more light; HeLa miR-21 FLuc reporter, luciferase, 48 h; AID 2288; 340,000 tested, under 10 active; active = well fitted rising curve with a large enough effect; inconclusive = small, poorly fitted or top-dose-only effect; inactive = no such curve, though single readings can be large or run the other way;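 also: % of control where 0% means no effect; miR-21 action dims this reporter so a rising signal means less miR-21 action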
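Compounds were titrated across several concentrations (up to approximately 40 uM) and incubated 48 hours with HeLa miR-21-FLuc reporter cells (miR-21 target sequence downstream of FLuc, endogenous miR-21). Readout was firefly luciferase luminescence after lytic detection reagent.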
Rango release inh: inhibitors of RanGTP-induced Rango-importin beta complex dissociation; Potency, µM (series often up to 46.1 µM), inactives show at the highest dose activity change, negative = inhibition; Biochemical FRET Rango-importin beta, RanGTP-induced dissociation; 0.071% of 340,000 active; active means falling FRET ratio curve, often poorly fitted, with flat reads before Ran was added; inconclusive means other falling curves, or compound fluorescence or quenching; inactive means flat or rising ratio curve;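 also: potency is read from the fitted curve at half-maximal effect; % of control where 0% means no effect; nearly all actives have a fitted effect of over 45% in size; -100% = wells without RanGTP and RCC1; the record marks most hits as doubtful in a second field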
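Quantitative HTS using a FRET biosensor: 0.1 uM Rango, 0.25 uM importin beta, 0.6 uM Ran, 2 mM GTP, 0.2 uM RCC1 final, PBS with DTT, Tween-20 and BSA. Post-read taken 45 min after Ran addition.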
GLA inh pH 4.5: blocks human alpha-galactosidase A at pH 4.5; activity change, negative = inhibition, % at 105 µM; 230,000 tested, under 10 active; purified enzyme, 4-MU-alpha-Gal fluorescence, pH 4.5; P06280; AID 1467; inconclusive = small, poorly fitted or top-dose-only inhibition, or a rising curve; inactive = flat fitted curve, though single readings scatter; no compound was filed as active;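 also: 0% = full activity with enzyme and -100% = basal without enzyme; dose as in the result columns while the protocol names 77 µM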
Rango-impB inh: inhibitors of Rango-importin beta complex formation. Q14974. Rango CFP/YFP FRET sensor + importin beta, 45 min. Potency, µM (doses to about 92.2 µM), without a hit: at the highest dose inhibition of complex formation. 0.031% of 340,000 active. AID 540263; active = rising FRET ratio curve, often small or poorly fitted; inconclusive = mostly compound fluorescence or quenching in the first reads; inactive = flat curves in all reads;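 also: potency is read from the fitted curve at half-maximal effect; 0% = DMSO wells and 100% = buffer wells lacking importin beta; nearly all actives have a fitted effect of over 15% in size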
Target sequence (Q14974 whole entry, looked up): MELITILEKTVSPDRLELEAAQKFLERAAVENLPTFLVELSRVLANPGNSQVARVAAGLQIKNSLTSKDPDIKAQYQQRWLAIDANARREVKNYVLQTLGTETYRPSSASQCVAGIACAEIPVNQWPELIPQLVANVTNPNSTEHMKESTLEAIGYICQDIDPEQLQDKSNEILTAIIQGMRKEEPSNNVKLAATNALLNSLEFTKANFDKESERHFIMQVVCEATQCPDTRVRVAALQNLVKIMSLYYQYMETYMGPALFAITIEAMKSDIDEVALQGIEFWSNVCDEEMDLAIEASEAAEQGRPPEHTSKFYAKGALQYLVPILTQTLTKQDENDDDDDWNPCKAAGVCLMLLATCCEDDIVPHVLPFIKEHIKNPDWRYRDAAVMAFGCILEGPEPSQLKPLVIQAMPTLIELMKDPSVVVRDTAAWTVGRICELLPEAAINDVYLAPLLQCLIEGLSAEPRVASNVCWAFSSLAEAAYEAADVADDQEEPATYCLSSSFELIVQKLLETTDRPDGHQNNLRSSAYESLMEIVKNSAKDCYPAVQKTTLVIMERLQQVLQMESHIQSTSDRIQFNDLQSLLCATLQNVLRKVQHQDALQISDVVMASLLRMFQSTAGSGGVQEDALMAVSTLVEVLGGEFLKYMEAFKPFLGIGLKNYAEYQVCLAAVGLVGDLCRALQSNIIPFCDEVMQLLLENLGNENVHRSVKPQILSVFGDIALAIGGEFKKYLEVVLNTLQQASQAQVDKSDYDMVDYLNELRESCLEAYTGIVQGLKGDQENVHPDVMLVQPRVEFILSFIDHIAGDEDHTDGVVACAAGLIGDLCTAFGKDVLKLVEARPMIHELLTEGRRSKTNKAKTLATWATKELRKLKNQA
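FRET biosensor Rango (snurportin 1 IBB between N-terminal EYFP and C-terminal Cerulean), 50 nM in PBS/1 mM DTT/0.02% Tween-20/0.1% BSA, preincubated 5 min RT with compound; 0.125 microM importin beta added, 45 min RT, CFP/YFP FRET ratio read.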
* hit, by the source's call; ? = inconclusive; . = no result given.

SMILES	miR-21 reporter	Rango release inh	GLA inh pH 4.5	Rango-impB inh
O=C(NC1CCCc2ccccc21)c1ccc(Br)cc1 (stereo not given)	-7%	1%	-1	-1.1%
CNS(=O)(=O)c1ccc(NC(=O)c2ccc(Cl)cc2Cl)cc1	-9%	7%	-7	1.0%
CC(=O)c1ccc(OCCCC(=O)Nc2cccc(S(=O)(=O)N(C)C)c2)cc1	-9%	-1%	-30	-0.6%
N#Cc1ccccc1NC(=O)C1SC(=Nc2ccccc2)C(C(=O)Nc2ccc(Cl)cc2)=C1N (stereo not given)	0%	6%	-12	3.4%
CCN(CC)c1ccc2oc(=O)c(C)nc2c1	29%	?	2	?
COc1ccc(CNC(=O)C2(CC(=O)NC(C)(C)C)CCCC2)cc1	-3%	-2%	.	-0.6%
COc1ccc(CC(=O)OCC(=O)NC2CCCC(C)C2C)cc1OC (stereo not given)	.	-16%	.	4.1%
O=C(NCCc1ccco1)C(=O)NCCC1CCCCN1S(=O)(=O)c1ccccc1 (stereo not given)	.	1%	.	-0.4%
CCc1ccc(Nc2n[n+](C)c(-c3ccc(C(=O)O)cc3)s2)cc1	-1%	.	10	.
CCOC(=O)c1c(NC(=O)CSc2nnc(C)o2)sc(C)c1C	-7%	-7%	0	0.2%
CCOCC(=O)Nc1cccc(OC)c1	-17%	-1%	-2	?
CCO[C@H]1OC(C(=O)N2CCN(C)CC2)=C[C@@H](c2csc3ccccc23)[C@@H]1CCCO	-7%	0%	6	-4.4%
Cc1ccc(S(=O)(=O)NN=C2CCN(Cc3ccccc3)CC2)cc1	-14%	-9%	4	-0.9%
CCOC(=O)CN1C(=O)S/C(=C\c2ccc(-c3ccc(C(=O)O)c(Cl)c3)o2)C1=O	-6%	?	.	?
CCN(CC(=O)Nc1c(F)cccc1F)C(=O)/C=C/c1ccc(C)o1	.	-2%	.	0.6%
COc1cccc(NC(=O)N2CCCC2)c1	-15%	-13%	3	-1.4%
Cc1ccc(C(=O)NCc2ccco2)cc1S(=O)(=O)N1CCCCC1	-6%	9%	-6	0.8%
CNS(=O)(=O)c1c(C)cc(C)c(N(C)S(=O)(=O)c2ccccc2)c1C	5%	6%	4	0.0%
CCOc1nc(NC(=O)NS(=O)(=O)c2ccccc2F)nc(-c2ccccc2)n1	-16%	14%	2	-0.7%
COC(=O)c1ccc(/C=C2/SC(=S)N(CCC(=O)NCCCN3CCOCC3)C2=O)cc1	-1%	-2%	.	0.3%
O=C(CN1CCN(c2ccccc2O)CC1)Nc1ccc2c(c1)OCCCO2	.	-21%	.	-4.2%
Cc1cc(NC(=O)CSCC(=O)Nc2nc3c(C)cccc3s2)no1	.	-3%	.	?
COCC(=O)Nc1cc(=O)n(C)c(=O)n1C	5%	-5%	-3	1.5%
O=S(=O)(NCCSc1ccccn1)c1ccc(Br)cc1	-1%	12%	5	0.2%
Cc1ccc(S(=O)(=O)CCc2nnc(NC(=O)c3cccs3)s2)cc1	-1%	0%	-2	-0.7%
CCc1nc(NC(=O)c2sc(C)nc2C)sc1C(=O)OC	-13%	-7%	.	1.9%
COc1ccc(C2NC(c3ccc(OC)cc3)C(c3ccccc3)C(=O)C2c2ccccc2)cc1 (stereo not given)	4%	43%	-7	0.3%
O=c1c(C(c2ccccc2)c2c(O)sc3ccccc3c2=O)c(O)sc2ccccc12	15%	-18%	-2	3.7%
Cc1ccc(N(CC(=O)Nc2c(C)n(C)n(-c3ccccc3)c2=O)S(C)(=O)=O)cc1C	-5%	-11%	-5	-0.6%
NS(=O)(=O)c1ccc(CNC(=O)Cc2ccccc2F)cc1	-5%	-14%	-10	0.8%

Among those listed so far, these have a COOH group.
SMILES	miR-21 reporter	Rango release inh	GLA inh pH 4.5	Rango-impB inh
CCc1ccc(Nc2n[n+](C)c(-c3ccc(C(=O)O)cc3)s2)cc1	-1%	.	10	.
CCOC(=O)CN1C(=O)S/C(=C\c2ccc(-c3ccc(C(=O)O)c(Cl)c3)o2)C1=O	-6%	?	.	?

Remaining list, next part:
SMILES	miR-21 reporter	Rango release inh	GLA inh pH 4.5	Rango-impB inh
O=C1CC(c2ccc(Cl)cc2)CC(=O)C1CS(=O)(=O)c1ccccc1 (stereo not given)	2%	-18%	-13	1.7%
O=C(Oc1ccccc1C(=O)Oc1ccccc1)c1cccnc1	9%	-5%	4	2.6%
COc1ccc(-c2nnc(NC(=O)c3cc(C)on3)s2)cc1	-4%	-3%	1	1.2%
Cn1cc2ccc([N+](=O)[O-])cc2n1	-5%	-4%	-3	-2.5%
Cc1ccc(N/C(SCc2ccccc2C)=C(/C#N)C(=O)NCc2ccco2)cc1C	14%	0%	5	-3.9%
O=C(CN(C(=O)C1CSC(=O)C1)c1ccc(F)cc1)NCc1ccc2c(c1)OCO2 (stereo not given)	0%	10%	.	0.6%
CCc1cc(C(=O)c2ccc(OC)cc2)c(N)s1	-3%	2%	-8	1.0%
O=C(CCN1C(=O)c2ccccc2C1=O)OCn1nnc2ccccc2c1=O	-8%	4%	-6	-3.4%
Cc1ccoc1C(=O)Nc1cccc2ccccc12	-56%	-8%	.	?
O=C(CCC(=O)N(CC(=O)NC1CCCC1)Cc1ccccc1)Nc1nccs1	0%	12%	.	-0.5%

Whole records, quoted from the list. Order of screens: miR-21 reporter, Rango release inh, GLA inh pH 4.5, Rango-impB inh
Results for `CCOC(=O)CN1C(=O)S/C(=C\c2ccc(-c3ccc(C(=O)O)c(Cl)c3)o2)C1=O` = -6%, ?, ., ?
Results for `COCC(=O)Nc1cc(=O)n(C)c(=O)n1C` = 5%, -5%, -3, 1.5%
Results for `CCOCC(=O)Nc1cccc(OC)c1` = -17%, -1%, -2, ?
Results for `Cc1cc(NC(=O)CSCC(=O)Nc2nc3c(C)cccc3s2)no1` = ., -3%, ., ?

Next records follow.
SMILES	miR-21 reporter	Rango release inh	GLA inh pH 4.5	Rango-impB inh
CC(C)(C)OC(=O)N1CCC(c2c(C(=O)O)cnn2-c2ccccc2Cl)CC1	-7%	-17%	-5	?
CCCCN(C(=O)CCC(=O)Nc1cc(C)on1)C(C(=O)NC1CCCC1)c1ccc(F)cc1 (stereo not given)	6%	16%	.	0.2%
CCOc1ccc(CNC(=S)NCc2ccc(OCC)cc2)cc1	-15%	0%	-2	2.5%
CC1=C(C(=O)Nc2ccccc2)C(c2cccs2)n2nnnc2N1 (stereo not given)	-1%	30%	-7	0.9%
CC(C)=CCC/C(C)=C/CNC(=O)C[C@H]1C[C@H](C(=O)N2CCCCC2)[C@@]2(CCc3ccccc3)c3[nH]c4cc(CCC(=O)N(C)C)ccc4c3CCN2C1=O	.	-6%	.	0.1%
N#C/C(=N\Nc1ccc(Cl)cc1)C(=O)c1ccsc1	22%	-2%	-5	-0.9%
CCOC(=O)N1CCN(C(=O)CC(=O)Nc2ccc3nc4n(c(=O)c3c2)CCCCC4)CC1	3%	-10%	13	?
CCOC(=O)C1=C(C)Nc2ccccc2N=C1NC(=O)C(CC)c1ccccc1 (stereo not given)	-7%	12%	-3	-2.4%
COc1cccc(-c2cc(C(=O)Nc3c(C)n(C)n(-c4ccccc4)c3=O)no2)c1	-1%	13%	-9	0.0%
Cn1c(SCC(=O)Nc2ccc3c(c2)OCCO3)nnc1-c1cccnc1	.	3%	.	1.8%
O=C(Nc1ccccc1)c1nc[nH]c1C(=O)NCCCCNC(=O)c1[nH]cnc1C(=O)Nc1ccccc1	.	1%	.	1.1%
CCC(C)(C)NC(=O)C(c1cccnc1)N(C(=O)c1csnn1)c1ccc(C)cc1 (stereo not given)	-1%	3%	9	-0.1%
COc1ccc(NCCC(O)c2ccc(Cl)cc2)cc1 (stereo not given)	-10%	8%	.	-1.2%
c1ccc(CCc2ccccc2-c2nc(-c3ccccn3)no2)cc1	-5%	-3%	-4	4.6%
O=C(COC(=O)c1ccc(Cl)nc1)Nc1ncc(Cl)cc1Cl	4%	-9%	1	?
CCCCCOc1ccc(CN2CCOCC2)cc1Cl	-26%	7%	-5	-0.2%
Cc1cc(O)c(N=Nc2ccc(C(=O)O)cc2)cc1C	.	-13%	.	-0.9%
CC1CCN(C(=O)COC(=O)c2ccc3c(c2)OCO3)CC1	-53%	-9%	2	0.4%
O=C(CN(Cc1ccc2c(c1)OCO2)C(=O)CNS(=O)(=O)c1ccccc1)NCc1ccco1	-8%	3%	15	-0.3%
CC(C(=O)c1ccccc1)[n+]1cccc(Br)c1 (stereo not given)	1%	-21%	.	-3.7%
CSc1ncccc1C(=O)N1CCCC(CCC(=O)NCc2ccccc2F)C1 (stereo not given)	0%	-6%	-6	-1.9%
CCOc1ccc(NC(=O)Cn2nnc(-c3ccc(C(N)=O)cc3)n2)cc1S(=O)(=O)N1CCCC1	.	-12%	.	0.2%
CCOc1ccc(C(=O)N2CCN(S(=O)(=O)c3ccc4c(c3)OCCO4)CC2)cc1OCC	.	0%	.	1.0%
Cc1cccc(OCC(=O)Nc2ccc3c(c2)OCCO3)c1	-53%	-11%	3	-1.6%
CCCOc1ccc(C(=O)NCCCn2ccnc2)cc1	-3%	-8%	-13	3.9%
CC(=O)Nc1ccc(N=Cc2ccc(OCc3ccccc3)cc2)cc1	-51%	-18%	6	3.4%
COc1cccc(/C=N/NC(=O)CNC(=O)/C=C\c2ccccc2)c1O	13%	-18%	.	?
CC(c1ccco1)N(C(=O)c1ccc(Cl)c([N+](=O)[O-])c1)c1ccccn1 (stereo not given)	1%	-4%	.	6.0%
COC(=O)c1[nH]c2cccc(OC)c2c1NC(=O)CN1CCOCC1	-7%	-12%	7	3.5%
COc1cc(/C=N/NC(=O)C(=O)NCC2CCCO2)ccc1O (stereo not given)	-1%	8%	-7	-1.4%
CN(c1ccccc1)c1ccc(/C=N/N2CCOCC2)cc1	-68%	1%	-11	3.1%
CCOc1ccccc1N(C)S(=O)(=O)c1ccc2c(c1)CCN2C(=O)CCC(=O)O	-1%	22%	.	-3.9%
C=C(C)C(COc1c2occc2cc2ccc(=O)oc12)OC(C)(C)C(O)COc1c2occc2cc2ccc(=O)oc12 (stereo not given)	.	2%	.	3.3%
O=c1c(-c2ccc(O)cc2)coc2c([C@@H]3O[C@H](CO)[C@@H](O)[C@H](O)[C@H]3O)c(O)ccc12	.	-2%	.	-4.2%
CCOc1ccc(OCCN2C(=O)c3ccccc3C2=O)cc1	16%	8%	.	-0.5%
O=C(N/N=C/c1coc2ccc(Cl)cc2c1=O)c1ccncc1	17%	25%	.	3.3%
CCOc1ccccc1CN1CCCC(CNC(=O)Cc2ccc(OC)cc2)C1 (stereo not given)	-5%	13%	.	0.1%
CCOc1ccc(CN(CC)C(=O)Cc2c[nH]c3ccccc23)cc1OC	4%	21%	.	0.4%
Cc1c(NS(=O)(=O)c2cc(C(=O)NCCc3ccc(F)cc3)cc(Cl)c2Cl)c(=O)n(-c2ccccc2)n1C	.	-2%	.	-0.2%
O=C(CSc1ccc2c(c1)OCCO2)NC(=O)Cc1ccccc1	-4%	5%	10	?
Cc1ccc(C(=O)NCCSC2CCCCC2)cc1S(=O)(=O)Nc1ccccc1	5%	7%	-3	-0.2%
COC(=O)c1ccc2c(=O)n(CCCCCC(=O)NCc3ccc4c(c3)OCO4)c(=O)[nH]c2c1	1%	10%	-6	-1.1%
COC(CN1C(=O)C(=O)/C(=C(/O)c2ccccc2)C1c1ccccn1)OC (stereo not given)	-5%	-3%	-1	1.7%
COc1ccc(S(=O)(=O)N2CCC(C(=O)N3CCCC3)CC2)cc1	1%	13%	4	-2.3%
COc1ccc(NC(=O)/C(Cl)=C(/Cl)S(=O)(=O)Cc2ccccc2)cn1	?	-4%	4	-2.1%
COc1ccc(/C=C2\C(=O)c3ccccc3OC2c2ccccc2)cc1 (stereo not given)	22%	-11%	-8	-2.6%
Cc1cccc(C(=O)N/C(=C\c2ccc(C)o2)C(=O)O)c1	2%	-4%	2	-0.3%
O=C(CCNC(=O)c1ccc(Cl)cc1)Nc1ccc(S(=O)(=O)N2CCCCC2)cc1	.	-24%	.	-2.7%
COC(=O)[C@@H]1C[C@]2(Br)c3ccccc3N(S(=O)(=O)c3ccccc3)[C@@H]2N1C(=O)OC	.	2%	.	2.1%

Source: PubChem BioAssay (National Center for Advancing Translational Sciences (NCATS))

Only part of the results is shown; the hit share may differ from the screen's.
